HPGD block: qHTS Assay for Inhibitors of HPGD (15-Hydroxyprostaglandin Dehydrogenase) | AID 894, 2007 | purified HPGD, NADH fluorescence kinetic, PGE2 substrate | 15-hydroxyprostaglandin dehydrogenase [NAD(+)] (Homo sapiens), P15428 | actives 4.3% (n = 150,000) | Potency, µM, inactives show top-dose activity change, negative = inhibition, most hits filed as inhibitors; active = well fitted inhibition curve with a large enough effect (not every such curve was filed as active); inconclusive = small, poorly fitted or top-dose-only effect, or another doubt; inactive = no such curve, though single readings can be large or run the other way;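 further: top concentration of the series not given in the record; plate controls included wells without enzyme; inactives centre near -10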
Target sequence (P15428 whole entry, looked up): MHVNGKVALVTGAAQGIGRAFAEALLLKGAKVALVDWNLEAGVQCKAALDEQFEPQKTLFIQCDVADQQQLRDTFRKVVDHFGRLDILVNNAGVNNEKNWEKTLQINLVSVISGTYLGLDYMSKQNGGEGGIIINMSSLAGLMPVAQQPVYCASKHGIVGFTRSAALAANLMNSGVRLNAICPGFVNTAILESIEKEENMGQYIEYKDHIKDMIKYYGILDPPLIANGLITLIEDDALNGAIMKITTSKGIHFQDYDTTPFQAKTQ
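NADH formation kinetics: reaction with 30 uM PGE2 and 1 mM NAD+ (final), 20 nM enzyme, Tris-HCl pH 8 with Tween 20, after 15 min compound preincubation at room temperature. Fluorescence change, last versus first of five reads.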
Numbers without * were called inactive; ? = inconclusive; & = joins results of further samples. On the % scale 0 is the no-effect control and ±100 the full control effect; potency means the concentration at half of the fitted maximal effect.

SMILES | HPGD block
COc1ccc(OCC(=O)NNC(=O)C(=O)Nc2ccc(C)cc2)cc1 | -13%
COc1ccc(S(=O)(=O)Nc2c(C)ccc3nsnc23)cc1OC | -16%
CCCCN(C)C(=O)c1cn(CC)c2ccc(S(=O)(=O)N(C)C)cc2c1=O | -7%
O=C(O)c1c(C(=O)O)c2ccccc2[nH]c1=O | -19%
Cc1ccc(CNC(=O)Cn2c(=O)oc3ccccc32)o1 | -12%
COc1cc(OC)c(C2C(C(=O)Nc3ccc(C)cc3C)=C(C)Nc3ncnn32)cc1OC (centres undefined) | -4%
COCCn1c(=O)c(-c2cccs2)nc2cnc(Oc3ccc(OC)cc3)nc21 | ?
CCOC(=O)c1c(NC(=O)CSc2nc3ccccc3c(=O)n2-c2ccc(F)cc2)sc(C(C)=O)c1C | -20%
CO/N=C/NC(=O)NOCc1ccc(Cl)cc1Cl | -20%
Cc1ccc(N2CCN(S(=O)(=O)N3CCCCCC3)CC2)cc1Cl | 1%
CCn1c(=O)n(CC(=O)NCc2ccco2)c(=O)c2ccccc21 | -20%
O=c1c2ccccc2cnn1-c1ccc(Cl)cc1 | -5%
COCCn1c(=O)c(-c2ccc(Cl)cc2)nc2cnc(Oc3ccc(OC)cc3)nc21 | ?
Cc1cccc(C(=O)/C=C2/c3ccccc3CC(C)(C)N2C)c1 | -12%
COCC(=O)N1CCC2(CC1)CCN(C(c1ccccc1)c1ccccc1)CC2 | -5%
COc1ccc(C2CC(=O)c3cnc(NC(=O)c4ccccc4)nc3C2)c(OC)c1 (centres undefined) | -8%
COc1ccc2nc(N3C(=O)CC(Cc4ccc(Cl)cc4)C3=O)sc2c1 (centres undefined) | -14%
Cc1occc1C(=O)Nc1sc2c(c1C(N)=O)CCCCC2 | -25%
CCOC(=O)c1nnn(CC(=O)N2N=C(c3cccc4ccccc34)CC2c2ccccc2)c1C(=O)OCC (centres undefined) | ?
CSc1nc2cc3c(cc2n1C(=O)c1ccc(C)cc1)OCCO3 | ?
COc1ccc(C(=O)NCC(=O)NCC(=O)OCC(=O)C(C)(C)C)cc1 | -9%
CCCCCCCC1=CC2=C(Cl)C(=O)C(C)(OC(C)=O)C(=O)C2=CO1 (centres undefined) | -13%
COc1ccccc1CNC(=O)C(NS(=O)(=O)c1ccc2c(c1)oc(=O)n2C)C(C)C (centres undefined) | -6%
CCOC(=O)c1c(C)n(C)c2cc(-c3ccc(C)cc3)c(O)cc12 | -7%
CCCS(=O)(=O)N1CCC(C(=O)NCCCN2CCCC2=O)CC1 | 2%
O=C(c1ccc(F)cc1)N1CCN(C(=O)c2cccnc2)CC1 | 1%
CC(Oc1ccc(Cl)cc1Cl)C(=O)NCc1ccncc1 (centres undefined) | -16%
Cc1ccnc(NS(=O)(=O)c2cnc(Cl)c(Br)c2)c1 | -18%
COc1cc(S(=O)(=O)N2CCN(C)CC2)c(OC)cc1Cl | -7%
Cc1cccc(NC(=O)Cn2c(=O)n3nc(CCn4nc(C)cc4C)nc3c3ccccc32)c1 | -24%
CCOC(=O)c1cc(-c2ccccc2)sc1NC(=O)CCN1C(=O)c2ccccc2C1=O | -21%
O=S(=O)(NCc1ccco1)c1ccc2c(c1)Cc1ccccc1-2 | ?
O=C1CCc2cc(S(=O)(=O)NC(Cc3ccccc3)C(=O)NC3CCCCC3)ccc2N1 (centres undefined) | -12%
CC1CCN(C(=O)CSCc2ccc(Cl)cc2)CC1 | -19%
CC(=O)c1cc(C#N)c(SCC(=O)OC(C)C)nc1C | -20%
CN(CC(=O)N1CCN(c2ccccn2)CC1)S(=O)(=O)c1ccc2ccccc2c1 | -28%
CN1CC[C@@]2(CCCN(S(=O)(=O)c3ccccc3)C2)C1 | -10%
O=[N+]([O-])c1ccccc1-c1ccc(/C=N/n2cnnc2)o1 | 16µM*
Cc1nc(SCCC(C)C)c([N+](=O)[O-])[nH]1 | -12%
CCN(CC)C(=O)c1cc2cc(Br)ccc2oc1=O | -22%

Entries above containing a nitro group on carbon, in the order listed:
SMILES | HPGD block
O=[N+]([O-])c1ccccc1-c1ccc(/C=N/n2cnnc2)o1 | 16µM*
Cc1nc(SCCC(C)C)c([N+](=O)[O-])[nH]1 | -12%

Remaining list, next part
SMILES | HPGD block
COC(=O)c1ccccc1S(=O)(=O)N(Cc1cc2ccc(OC)cc2[nH]c1=O)CC1CCCO1 (centres undefined) | -7%
O=C(c1ccc([N+](=O)[O-])cc1)N(Cc1ccc(Cl)cc1Cl)N1C(=O)CCCC1=O | 3%
Cc1cc(C)c(OCC(=O)Nc2nnn(C)n2)c(Br)c1 | -12%
CC(=O)N(CN1C(=O)c2ccc([N+](=O)[O-])cc2C1=O)c1ccc(F)cc1 | -10%
CC1=C(C(=O)OCc2ccccc2)C(c2ccccc2)NC(=O)N1CCCCCC(=O)O (centres undefined) | -10%&-16%
C/C(CC(=O)Nc1cc(Cl)ccc1Cl)=N\NC(N)=S | -6%
O=C(CN1CCN(S(=O)(=O)c2ccc(F)cc2)CC1)Nc1cccc(C(F)(F)F)c1 | -9%
COc1ccc(Cl)cc1Nc1nc(NCCO)nc(N2CCCC2)n1 | -3%
CCc1sc(C(=O)Nc2cc(Cl)ccc2N2CCCCC2)cc1C | ?
COc1ccc2nc(NC(=O)CCn3cccc3)sc2c1 | -3%
CCOCC(=O)NCc1ccc2c(c1)OCO2 | 13µM*
CC(C)CC(=O)OCc1cn(-c2ccccc2)nn1 | -12%
O=C(/C=C/c1ccccc1)NNC(=O)C1CC1 | ?
COCCCn1c(SCC(=O)NC(C)(C)C)nnc1-c1ccccc1 | -9%
COc1cnc(SCc2ccc(Cl)c(Cl)c2)nc1Cl | -22%
COc1cccc(-c2nc(-c3ccc4c(c3)-c3ccccc3S4(=O)=O)c(-c3ccccc3)[nH]2)c1OC | ?
Cc1ccnc(NC(=O)CCC(=O)N(CC(=O)NC2CCCCC2)c2cccc(C)c2C)c1 | 2%
CCCCNC(=O)c1onc(CSc2cccc3ccccc23)c1C(=O)O | ?
Cc1cccc(C(=O)Oc2coc(CSc3nnc(NC(=O)C4CC4)s3)cc2=O)c1 | -16%
CC(=O)c1cnc(N2CCCCC2)nc1C | -11%

(more compounds)
molecule | HPGD block
Nc1c(S(=O)(=O)c2cccs2)c2nc3ccccc3nc2n1/N=C/c1cccc(O)c1 | ?
O=c1oc2cc(OCc3ccc([N+](=O)[O-])cc3)ccc2c2c1CCCC2 | -6%
N#Cc1c(-c2ccc(Br)cc2)cc(-c2cccnc2)nc1N | -11%
CCOc1ccc(NC(=O)CC2C(=O)N(C)C(=S)N2CCCc2ccccc2)cc1 (centres undefined) | -5%
O=S(=O)(NCc1ccncc1)c1ccccc1 | -3%
CCOC(=O)c1c(N)n(-c2ccc(N)cc2)c2nc3ccccc3nc12 | -5%
CCOC(=O)C1=C(C)N(c2ccc(OC)cc2)C(=O)/C1=C\c1cccs1 | -7%
COc1ccc(C(=O)NC(Cc2ccccc2)c2ccc3c(c2)OCCCO3)cc1 (centres undefined) | 2%
CCOc1ccc(C(=O)N/N=C/c2ccccc2[N+](=O)[O-])cc1 | -7%
CNc1nc(-c2ccccc2)cc(C(F)(F)F)c1C#N | ?
O=C1C2C3CCC(C3NCc3ccccc3)C2C(=O)N1Cc1ccccc1 (centres undefined) | -14%
CCCCN1CC2([N+](=O)[O-])C=CC(=O)C([N+](=O)[O-])(C1)C2CC(=O)c1ccccc1 (centres undefined) | -8%
OC(c1ccc(Cl)cc1)C(O)c1nc2ccccc2[nH]1 (centres undefined) | -2%
Cn1c(=O)c2c(ncn2CC(=O)N2CCOCC2)n(C)c1=O | -12%
O=C(Nc1ccc(CN2CCOCC2)cc1)c1ccc(-c2cccc(Cl)c2)o1 | ?
CCCCCC(=O)NCC(C)NC(=O)CCCCC (centres undefined) | 2%

Rewritten with values ahead of the structure: 2 of the compounds above.
| HPGD block | canonical_smiles |
| --- | --- |
| -12% | Cn1c(=O)c2c(ncn2CC(=O)N2CCOCC2)n(C)c1=O |
| ? | O=C(Nc1ccc(CN2CCOCC2)cc1)c1ccc(-c2cccc(Cl)c2)o1 |

Next section.
molecule | HPGD block
Cc1cc(C(C)(C)C)ccc1OCCN1CCCC1 | -11%
CC1C/C=C/C=C/C=C/C=C/C(O[C@@H]2O[C@H](C)[C@@H](O)[C@H](N)[C@@H]2O)CC2OC(O)(CC(O)CC3OC3/C=C/C(=O)O1)CC(O)C2C(=O)O (some centres undefined) | -16%
CCn1c2ccccc2c2cc(NS(=O)(=O)c3ccc(C)cc3)ccc21 | -16%
Cc1ccc2nc3c(cc2c1)c(NC(=O)C1CCCO1)nn3CC(C)C (centres undefined) | -16%
COc1ccc(Cn2nnnc2C(c2cc3ccc(OC)cc3[nH]c2=O)N2CCC(C)CC2)cc1 (centres undefined) | -8%
CN(c1ccccc1C(=O)O)S(C)(=O)=O | -9%
CC1(C)Cc2c(sc3c2c(=N)n(Cc2ccco2)c(=O)n3CC(=O)Nc2ccc(Cl)cc2)CO1 | -21%
O=C(c1cccs1)N1CCCC1 | -17%
C=CC1=C2C=C(C3CC3)N(c3ccc(OC)cc3)C=C2C(=O)C(C)(OC(=O)c2ccco2)C1=O (centres undefined) | -8%
CCOCCCNC(=O)Cc1cc(=O)[nH]c(=O)[nH]1 | -8%
N#Cc1nc(COc2ccccc2)oc1N1CCN(Cc2ccccc2)CC1 | -14%
COC(=O)c1sc2ccccc2c1-n1cccc1C(=O)C(=O)Nc1ccc(F)cc1 | -16%
CCc1c(C)nc(SC(C(=O)O)c2ccccc2)c(C#N)c1C (centres undefined) | -1%
CCCCn1c(SCC(N)=O)nc2c(sc3ccccc32)c1=O | -13%
CCn1cc(C(=O)Nc2ccc(F)c(F)c2)cn1 | -6%
COc1cc(C(=O)OCn2nnc3ccccc3c2=O)cc(OC)c1OC | ?
Cc1nc2c3ccccc3nc(SCC(=O)N3CC(C)CC(C)C3)n2n1 (centres undefined) | ?
COc1cc(NC(=O)C2CCCCC2)c(OC)cc1NC(=O)CN1CCCCC1 | -6%
Cc1ccc(OCc2nnc(SCC(=O)Nc3ccc4c(c3)OCCO4)n2Cc2ccco2)cc1 | -19%
Cc1c(NC(=O)CSc2nnc(COc3ccccc3)n2-c2ccccc2)c(=O)n(-c2ccccc2)n1C | -8%
Cc1ccc(C(=O)COC(=O)CCC(=O)Nc2cc(Cl)ccc2Cl)cc1[N+](=O)[O-] | -1%
COc1ccc2[nH]c(C)c(CCNC(=S)Nc3cc(C)cc(C)c3)c2c1 | 0%
O=C(NCCN1CCOCC1)c1ccc(-c2ccccc2)cc1 | ?
CN1CCC(N2CCCC(C(=O)O)C2)CC1 (centres undefined) | -7%

Entries above containing bromine:
molecule | HPGD block
Cc1ccnc(NS(=O)(=O)c2cnc(Cl)c(Br)c2)c1 | -18%
CCN(CC)C(=O)c1cc2cc(Br)ccc2oc1=O | -22%
Cc1cc(C)c(OCC(=O)Nc2nnn(C)n2)c(Br)c1 | -12%
N#Cc1c(-c2ccc(Br)cc2)cc(-c2cccnc2)nc1N | -11%

(next part)
molecule | HPGD block
CS(=O)(=O)N(Cc1ccco1)CC(O)Cn1cc(C=O)c2ccccc21 (centres undefined) | -25%
CC1(c2ccccc2)CC(C)(C)N(C(=O)CSc2nnc(N)s2)c2ccccc21 (centres undefined) | -6%
O=C(O)C=C1C2CC3CC(C2)CC1C3 | 5%
CC1(C)CC(=O)C(N=Nc2cc(Cl)c(Cl)c(Cl)c2)=C(O)C1 | -8%
CCOc1nc(NC(=O)NS(=O)(=O)Oc2cccc(Cl)c2)nc(-c2ccccc2)n1 | -14%
Cn1nc(Oc2nc(N3CCOCC3)nc(N3CCOCC3)n2)ccc1=O | -7%
COc1ccc(N=C(C)C2=C(O)CSC2=O)cc1 | -15%
CC(=O)c1cn(CCC(C)C)c(=O)[nH]c1=O | -6%
CC(C)(C)c1ccc(/C=C/C(=O)Nc2ccncc2)cc1 | ?
CC1(C)C(=O)NCCN1C(=O)CCC(=O)O | -13%
S=c1[nH]nc(-c2ccc(Cl)cc2)n1-c1ccc2c(c1)OCCO2 | 14µM*
CC(C)(C)c1cc(N)on1 | -1%
Cc1ccc(S(=O)(=O)N(CC(=O)NC2CCCC2)c2cccc(C)c2)cc1 | -16%
COCCNC(=O)C(c1ccc(C)o1)N(Cc1cccs1)C(=O)c1snc(C(N)=O)c1N (centres undefined) | -12%
COc1ccc(NC(=O)CN2C(=O)C(c3ccccc3)=NC23CCCCCC3)cc1OC | -14%
CC(=O)NS(=O)(=O)c1ccc(NC(=O)C2C3C=CC(C3)C2C(=O)O)cc1 (centres undefined) | -4%
Cn1c(=O)[nH]c(=O)c2c1nc(N1CCC(Cc3ccccc3)CC1)n2Cc1ccccc1 | -20%
CNCCOCC(O)CSc1ccccc1 (centres undefined) | -2%
COc1ccccc1CNc1ncncc1-c1ccoc1 | -23%
CCSCCOC(=O)C1=C(C)NC(=O)NC1c1cc(OC)ccc1OC (centres undefined) | -2%
COc1ccc2c(CC(=O)OCC(=O)c3ccccc3OC)coc2c1 | -20%
CCOCCCNC(=O)C1CCCCN1S(=O)(=O)c1ccc(F)cc1 (centres undefined) | -7%
O=c1cc(N2CCC(Cc3ccccc3)CC2)[nH]c(=O)n1C1CCCCC1 | -5%
O=S(=O)(CCSc1ccccn1)c1nc2ccccc2s1 | -27%
Cc1ccc(C(=O)C2=C(O)C(=O)N(CCCN(C)C)C23C(=O)N(C)c2ccccc23)o1 (centres undefined) | -6%

Assay outcomes as filed in PubChem BioAssay.

These rows are one share of the data, so the mix of outcomes need not match the whole.
